HNF4A DNA FP: change in binding of human HNF4 alpha to DNA. P41235. HNF4a-FITC DNA binding, fluorescence polarization, 1 h. activity change, % at 10 µM. hit rate 0.3% among 360,000. AID 1224865; in the data active = activity change above about 30%, passing the limit was not always enough;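 note: controls were the assay level and a saturating level of protein; the project sought stronger binding though the title names inhibitors; some compounds called inactive have numbers as strong as hits; positive values seem to mean higher polarization but the record does not say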
Target sequence (P41235 whole entry, looked up): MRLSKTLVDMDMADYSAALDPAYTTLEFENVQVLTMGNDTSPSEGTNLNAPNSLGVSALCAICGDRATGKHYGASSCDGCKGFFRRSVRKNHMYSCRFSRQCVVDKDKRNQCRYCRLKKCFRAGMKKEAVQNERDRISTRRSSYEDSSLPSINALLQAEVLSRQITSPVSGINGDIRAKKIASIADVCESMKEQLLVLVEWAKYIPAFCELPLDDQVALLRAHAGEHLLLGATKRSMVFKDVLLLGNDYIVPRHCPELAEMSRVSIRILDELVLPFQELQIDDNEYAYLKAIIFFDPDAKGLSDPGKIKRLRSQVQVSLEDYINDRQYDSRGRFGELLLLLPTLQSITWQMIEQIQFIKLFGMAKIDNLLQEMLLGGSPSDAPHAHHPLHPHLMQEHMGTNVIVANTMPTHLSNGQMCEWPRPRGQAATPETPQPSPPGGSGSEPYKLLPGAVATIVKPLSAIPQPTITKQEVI
LANA-H2B inh: blocks KSHV LANA binding to histone H2A/H2B; AID 2629; inhibition, % (no concentration beside the values); hit rate 0.6% among 320,000; cell-free LANA-H2A/H2B peptide, fluorescence polarization; in the data active = inhibition mostly above about 10%, no sharp cut-off; inactive = mostly below about 6.7%;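 note: stock transfer was 7.5 nL into about 10 µL; 0% = median of vehicle wells and 100% = median of positive control wells; one replicate is shown; the record names a cut of 25% in any replicate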
UCH37 DUB inh: blocks the human deubiquitinase UCH37; inhibition, % (concentration not given with the values); AID 588478; hit rate 0.33% among 330,000; Q9Y5K5; purified proteasome/UCH37, Ub-AMC cleavage fluorescence;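 active = mean of two replicates above 20%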;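 note: 0% = compound-free wells with enzyme and 100% = wells lacking proteasome; stock transfer was 100 nL into about 20 µL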
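System: Proteasome-associated human UCH37 deubiquitinase; Input: 0.15 nM proteasome in added enzyme buffer; Also added: Ub-AMC substrate from 1 µM stock; Incubation: 30 min compound-proteasome preincubation then 25 min substrate reaction, room temperature; Detection: fluorescence, ex 355 nm, em 460 nm; Read-out: % inhibition of Ub-AMC cleavage fluorescence; Benchmarks: no-proteasome and no-compound wells.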
FGF22 binding: shifts melting point of recombinant human FGF22; recombinant FGF22 thermal shift, SYPRO orange fluorescence; percent of sucrose octasulfate shift, DMSO zero; hit rate 1.5% among 340,000; calls only at 9.99 µM;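 active = melting point raised past a set limit in the mean and every replicate; three in four hits are not shown here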
Target sequence (Q9HCT0 whole entry, looked up): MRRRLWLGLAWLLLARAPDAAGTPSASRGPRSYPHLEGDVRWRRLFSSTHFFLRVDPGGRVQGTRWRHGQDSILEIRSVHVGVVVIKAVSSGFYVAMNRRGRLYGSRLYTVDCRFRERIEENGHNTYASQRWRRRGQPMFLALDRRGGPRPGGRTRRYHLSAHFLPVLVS
Ecoli growth: blocks Escherichia coli growth; OD600, 23 h; stronger effect = lower value; OD600 absorbance (concentration not given with the values); hit rate 0.21% among 330,000;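 active = OD600 absorbance below the run mean of sample wells minus 3.6 SD, in any replicate, cut at about 0.56 in these data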;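 note: stock transfer was 300 nL into about 60 µL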
ALR H2O2 inh: inhibitors of human sulfhydryl oxidase ALR; P55789; purified ALR, DTT oxidation, H2O2 HRP-luminol luminescence; inhibition, % (no concentration beside the values); hit rate 3.8% among 290,000; AID 485317;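 active = mean and each replicate at 75% or more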;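 note: stock transfer was 7.5 nL into about 7.5 µL; 0% = neutral wells and 100% = wells with inactivated enzyme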
Beta2AR agonist: activates human beta-2 adrenergic receptor causing internalization | hit rate 0.43% among 340,000 | P07550 | AID 504454 | Am2.2-beta2AR cells, FAP receptor internalization, flow cytometry; reference of the scale not given here | response, % (test concentration not listed);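 active = response above a set limit, near 3 SD of response in nonfluorescent compounds, cut at about 42% in these data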;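 note: stock transfer was 100 nL into about 11 µL; a reference agonist was the positive control; negative values mostly stem from fluorescent compounds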
Target sequence (P07550 whole entry, looked up): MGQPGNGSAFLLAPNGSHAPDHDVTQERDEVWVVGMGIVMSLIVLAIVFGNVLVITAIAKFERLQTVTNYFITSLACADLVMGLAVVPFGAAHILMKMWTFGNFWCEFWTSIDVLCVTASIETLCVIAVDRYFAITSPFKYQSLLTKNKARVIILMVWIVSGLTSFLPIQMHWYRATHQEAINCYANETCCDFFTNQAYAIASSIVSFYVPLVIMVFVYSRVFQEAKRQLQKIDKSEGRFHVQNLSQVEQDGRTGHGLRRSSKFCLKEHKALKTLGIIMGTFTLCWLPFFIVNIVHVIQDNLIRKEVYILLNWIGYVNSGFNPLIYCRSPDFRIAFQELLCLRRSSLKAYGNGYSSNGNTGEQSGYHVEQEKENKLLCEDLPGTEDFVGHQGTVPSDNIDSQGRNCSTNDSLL
* hit, by the source's call; i = inactive; / = not tested or not shown. Not all compounds are listed; the hit share may differ from the screen's.

Fields: HNF4A DNA FP	LANA-H2B inh	UCH37 DUB inh	FGF22 binding	Ecoli growth	ALR H2O2 inh	Beta2AR agonist
1	O=C(N1CCOCC1)N1CCOCC1
    -1.2	1.8	4.0	/	0.66	-18	0
2	COc1ccc2[nH]c(C)c(CCNC(=S)Nc3ccccc3C)c2c1
    0.6	-0.9	5.1	i	0.75	40	3
3	CCOC(=O)N1CCN(C(=O)NC23CC4CC(CC(C4)C2)C3)CC1
    0.3	-0.2	-1.1	/	0.73	0	-2
4	COc1cc(CNCc2ccccn2)ccc1OCC(=O)NC1CCCCC1
    0.2	/	1.1	/	0.68	/	11
5	Cc1ccc(NC(=O)C(=O)NCC2CCCO2)cc1 (centres undefined)
    -2.0	1.8	1.2	i	0.69	-1	1
6	Cc1ccc([N+](=O)[O-])cc1S(=O)(=O)NCCc1c(C)[nH]c2c(C)cccc12
    -2.4	2.0	4.3	i	0.76	/	4
7	CCC(=O)Nc1c2c(nn1-c1ccc(C)cc1)CS(=O)(=O)C2
    0.8	-0.9	3.6	/	0.69	-4	5
8	CCOC(=O)CSc1nnc(CNC(=O)c2ccc(OC)c(OC)c2)n1C
    -2.2	-3.2	2.6	/	0.65	/	0
9	CCOC(=O)c1c(NC(=O)C2Cc3ccccc3C(=O)O2)sc2c1CCCC2 (centres undefined)
    1.9	-2.1	-12	i	0.71	-11	-3
10	Cn1nnnc1SCc1ccc([N+](=O)[O-])cc1
    0.2	-3.5	2.4	/	0.65	-4	3
11	CC(=O)C[C@@H](O)CC(=O)[C@H]1OC(=O)CCCCCCCCc2ccccc21
    -3.3	1.6	1.3	i	/	-1	-22
12	Cc1ccccc1CSCC(=O)NC1CCCC1
    -2.1	0.1	2.7	/	0.77	/	1
13	O=C(COC(=O)c1ccccc1C(=O)OCC(=O)NCCc1c[nH]c2ccccc12)NCCc1c[nH]c2ccccc12
    1.2	1.8	1.7	i	0.71	-6	25
14	COC(=O)C1=CO[C@@H](O[C@@H]2O[C@H](CO)[C@@H](O)[C@H](O)[C@H]2O)C2C1CC(O)O[C@H]2C (some centres undefined)
    -1.0	3.1	0.9	i	/	-7	1
15	CC(C)(C)OC(=O)N1CCC(c2c(C(=O)NCC3CCN(C4CCCC4)C3)cnn2-c2ccccc2Cl)CC1 (centres undefined)
    0.3	-1.6	0.8	i	0.69	-11	6
16	COc1ccc(/C(C)=N/NC(=O)CNC(=O)c2cccs2)cc1OC
    -2.9	2.3	/	i	/	-5	-3
17	O=C(CCn1c(=S)oc2ccccc21)Nc1cccc(F)c1
    3.4	129*	/	/	/	2	-5
18	COc1ccc(N2CCN(C(=O)c3ccc(S(=O)(=O)N4CCCC4)cc3)CC2)cc1
    -0.9	0.6	1.6	i	0.65	64	-1
19	O=C(NN1C(=O)/C(=C\c2ccc(O)c([N+](=O)[O-])c2)SC1=S)c1ccccc1Cl
    28	-11	/	i	/	13	10
20	CCOC(=O)c1cccc(NC(=O)CSc2nnc(-c3cccnc3)n2CC)c1
    0.7	-5.6	0.9	/	0.68	-1	10
21	COc1cc2c(cc1OC)C(Cc1ccc(O)cc1)N(C)CC2 (centres undefined)
    1.2	-3.5	-0.8	/	0.63	0	-15
22	CCN(CC)CCN(C)c1ccc(N2C(=O)C3CC=CCC3C2=O)cc1[N+](=O)[O-] (centres undefined)
    -3.7	1.9	7.4	i	0.68	-26	-5
23	C=CCOC(=O)C1=C(C)NC(=O)NC1c1cn(-c2ccccc2)nc1-c1cccs1 (centres undefined)
    2.5	-0.3	0.9	/	0.71	1	-7
24	CCc1ccccc1N(CC(=O)NCc1ccc(OC)cc1)C(=O)CCC(=O)Nc1ccccn1
    -2.6	0.7	-2.1	i	0.71	/	0
25	O=C1N(Cc2cccc(Cl)c2)C[C@@H]2C[C@@H](c3cccc4cccnc34)N3CCC[C@@]123
    2.8	8.5	2.6	i	0.64	-1	9
26	Cc1cc(Nc2nc3ccccc3nc2Cl)n(-c2ccccc2)n1
    -2.4	2.7	-8.1	/	0.72	96*	-13
27	O=C(OC1CCOC1=O)C1CCN(S(=O)(=O)c2ccc(Cl)c(C(F)(F)F)c2)CC1 (centres undefined)
    -3.8	2.4	2.1	i	0.64	-3	-6
28	CCOC(=O)CN1CC23C=CC(O2)C(C(=O)NC2CCCC2)C3C1=O (centres undefined)
    -0.2	0.4	5.9	i	0.78	-2	5
29	Cn1ccnc1CN1CCN(C(=O)c2cc(COc3ccc(F)c(F)c3)on2)CC1
    1.4	3.3	1.0	i	0.66	-6	-8
30	COc1ccc(-c2cc(C(=O)N(C)Cc3ccc(OC)c(OC)c3OC)c3ccccc3n2)cc1OC
    -4.6	-4.6	-106	i	0.68	0	18
31	S=C(NCc1ccco1)N/N=C/c1ccccc1Cl
    2.8	-3.7	/	/	/	/	1
32	CCC1CCc2c(sc(NC(=O)C3CC=CCC3C(=O)O)c2C#N)C1 (centres undefined)
    -4.6	-0.5	5.3	i	0.71	26	1
33	O=C(COc1ccccc1)NCC(=O)N/N=C/c1ccc(Br)cc1
    9.2	0.2	/	i	/	-2	6
34	CCOC(=O)c1cc(-c2ccc(Cl)cc2)nc2onc(C)c12
    /	-2.4	-24	/	0.76	-6	/
35	O=C(c1cccs1)N(Cc1cccc(Cl)c1)C1CCS(=O)(=O)C1 (centres undefined)
    -3.3	2.2	5.8	/	0.72	-3	1
36	COc1cc(OC)nc(NC(=O)COC(=O)C2CCCCC2)n1
    -3.6	6.6	3.2	/	0.7	-5	-7
37	Cc1cc(C)n(CCCNC(=O)COc2ccc([N+](=O)[O-])cc2)n1
    5.8	-1.9	2.4	i	0.63	-13	2
38	CC1(C)SCC(C(=O)O)N1C=O (centres undefined)
    0.7	5.3	1.8	/	0.8	/	6
39	O=C(NC1CCCCC1)c1cc(S(=O)(=O)N2CCOCC2)c(Cl)cc1Cl
    0.2	-1.5	5.3	i	0.62	2	-2
40	CCN=C1SC(CC(=O)Nc2sc3c(c2C#N)CCCC3)C(=O)N1CC (centres undefined)
    -1.1	-1.2	4.0	/	0.72	-14	-5
41	CNC(=O)C(=O)NCC1OCCN1S(=O)(=O)c1ccc(OC)c(OC)c1 (centres undefined)
    -0.1	3.2	4.4	i	0.72	-11	1
42	CC(C)n1c(=O)[nH]c2ccccc21
    4.7	1.1	2.7	i	0.69	-5	-3
43	COc1ccc(-c2nn3c(-c4cccc(C)c4)nnc3s2)cc1OC
    1.6	-5.3	-1.3	/	0.75	-7	6
44	Cc1ccccc1NC(=O)Cc1nc(COC(=O)c2cc(Br)ccc2O)cs1
    3.6	6.2	-0.7	i	0.72	/	-1
45	CCc1ccc(C)[n+](CC(=O)c2cccs2)c1
    3.7	3.0	2.6	i	0.64	7	0
46	O=C(Nc1ccccc1)C1CC(=O)N(C2CCCCC2)C1 (centres undefined)
    -1.2	-3.9	0.1	/	0.78	-2	9
47	O=C1OCc2cc(NS(=O)(=O)c3cccs3)ccc21
    -3.9	-5.1	3.6	i	0.64	40	9
48	Cc1nc(C(=O)NC(C)C)nn1-c1cc(Cl)cc(Cl)c1
    -1.2	-5.0	4.7	i	0.69	1	-6
49	CSc1nsc(SC)c1C(=O)OCC(F)(F)F
    -1.3	0.9	4.3	/	0.76	-1	1
50	CC(=O)Oc1ccc(N2C(=O)C3C(C2=O)C2C=CC3C23CC3)cc1[N+](=O)[O-] (centres undefined)
    -1.4	11*	/	i	/	-18	4
51	O=C(COc1ccc(S(=O)(=O)NCc2ccccc2)cc1)N1CCOCC1
    2.1	9.5	1.2	i	0.65	-5	0
52	CCCN1C(=O)/C(=C/c2ccc(C)s2)SC1=Nc1ccc(OC)cc1
    -5.0	-1.9	3.1	/	/	-6	1
53	O=C(O)C1OC(C(=O)O)C(C(=O)O)C1C(=O)O (centres undefined)
    -2.3	/	/	i	/	/	5
54	Cc1ccccc1N(C=O)c1ccccc1C
    -1.2	/	5.4	i	0.65	/	1
55	O=C1CC2(CCN(C(=O)COc3ccccc3)CC2)Oc2ccccc21
    2.3	-1.4	-45	i	0.65	-3	1
56	CC(=O)N1CCCN(Cc2cn(-c3cccc(C)c3)nc2-c2cccc(F)c2)CC1
    4.8	-4.2	0.3	i	0.66	/	-7
57	C=C(C)c1cccc(C(C)(C)NC(=O)N2CCCC(C)C2)c1 (centres undefined)
    -1.6	2.5	0.5	/	0.74	/	9
58	O=C(CN(Cc1ccc(Br)cc1)S(=O)(=O)c1ccccc1)NCc1cccnc1
    3.0	3.7	3.2	i	0.68	3	-7
59	Cc1nc2ccccc2nc(=O)c1NNc1ccc([N+](=O)[O-])cc1
    71*	2.5	0.7	i	0.7	-1	-8
60	C#Cc1ccc([C@@H]2C=C(C(=O)N3CCN(Cc4ccc5c(c4)OCO5)CC3)O[C@H](OCCCCO)C2)cc1
    5.3	-4.3	/	i	/	10	7

(continued)
Fields: HNF4A DNA FP	LANA-H2B inh	UCH37 DUB inh	FGF22 binding	Ecoli growth	ALR H2O2 inh	Beta2AR agonist
61	Cc1ccc(NC(=O)CN2C(=O)CSC2=O)cc1
    -0.8	3.1	-0.6	/	0.67	-20	4
62	CC1(CC(=O)O)SC(=O)NC1=O (centres undefined)
    -1.3	0.5	-1.1	/	0.66	/	6
63	CCOc1cc(C(=O)N[C@@H](C)C(=O)N2CCC3(CC2)NCCc2[nH]cnc23)cc(OCC)c1OCC
    -2.5	-0.9	2.8	i	0.67	-18	-3
64	C=CCC[C@H](Cc1ccc(F)cc1)C(=O)OC[C@H](C)NC(=O)[C@@H](CC=C)CC(=O)N[C@H](CO)Cc1ccccc1
    1.3	-2.8	-0.1	i	/	-10	-1
65	Cc1ccc(Nc2cc(=O)oc3ccccc23)c(C)c1
    -2.7	-3.9	-5.2	/	0.65	21	-4
66	Clc1ccc(OCCOCCN2CCCCC2)c(Br)c1
    -1.7	-2.4	3.6	/	0.62	-1	0
67	Cc1ccc2c(c1)[C@H]1[C@H](CO2)[C@H](c2ccccc2)[C@]2(C)C(=O)N(C)CC(=O)N12
    1.1	/	/	i	/	/	0
68	COc1ccc(S(=O)(=O)n2nc(-n3c(C)ccc3C)c3c(F)cccc32)cc1OC
    1.1	-5.6	5.6	i	0.7	/	11
69	OCCNCCOc1ccccc1F
    -0.9	5.5	1.2	/	/	-11	-2
70	COC(=O)c1ccc(NS(=O)(=O)c2cc3c4c(c2)CCC(=O)N4CCC3)cc1
    -0.9	-4.7	1.6	i	0.63	-3	4
71	O=C(c1ccccc1)N1CCOC12CCN(c1ncc(C(F)(F)F)cc1Cl)CC2
    -0.2	-2.7	-0.3	/	0.76	59	-5
72	CCOC(=O)CS(=O)(=O)CC(=O)Nc1ccc([N+](=O)[O-])cc1OC
    -2.8	7.1	6.1	i	0.66	3	86*
73	Cc1cc(C)cc(NC(=O)C2CCCN(S(=O)(=O)c3ccc4[nH]c(=O)ccc4c3)C2)c1 (centres undefined)
    4.5	-2.4	/	i	/	6	-7
74	Cc1ccc(C(=O)NCC(=O)Nc2ccc(Cl)cc2)s1
    -1.9	-2.7	3.2	i	0.72	-6	-1
75	CC(=O)N1CCC(N(CCN2CCOCC2)C(=S)Nc2c(C)cccc2C)CC1
    -1.0	-3.0	4.8	i	0.7	-2	0
76	COc1ccc(Oc2coc3cc(OCC(=O)N4CCCCC4)ccc3c2=O)cc1
    /	-3.1	2.2	/	0.72	/	/
77	COc1ccc(OC)c(S(=O)(=O)N2Cc3ccccc3CC2C(=O)O)c1 (centres undefined)
    1.1	-0.2	1.4	/	0.72	-1	2
78	O=C(O)c1ccc(NC(=S)NC(=O)c2ccc(-c3ccccc3)cc2)cc1
    -0.8	-7.1	6.9	/	0.66	0	10
79	O=C1CCN(CC2CCCCC2)C=C1C(=O)c1ccccc1
    4.5	/	/	i	/	/	7

Single records, from the list above:
O=C1CCN(CC2CCCCC2)C=C1C(=O)c1ccccc1 is listed as HNF4A DNA FP: 4.5; LANA-H2B inh: /; UCH37 DUB inh: /; FGF22 binding: i; Ecoli growth: /; ALR H2O2 inh: /; Beta2AR agonist: 7
COc1ccc(OC)c(S(=O)(=O)N2Cc3ccccc3CC2C(=O)O)c1 (centres undefined) is listed as HNF4A DNA FP: 1.1; LANA-H2B inh: -0.2; UCH37 DUB inh: 1.4; FGF22 binding: /; Ecoli growth: 0.72; ALR H2O2 inh: -1; Beta2AR agonist: 2
